gsp agonist – qHTS for Agonist of gsp, the Etiologic Mutation Responsible for Fibrous Dysplasia/McCune-Albright Syndrome: qHTS; gsp mutant cells, cAMP HTRF, 30 min; control for the full effect not named in the record; Potency, µM (series often up to 76.9 µM), for inactives: at the highest dose activation (cAMP increase), usual class: activators; hit rate 0.13% among 340,000; active = well fitted activation curve with a large enough effect; inconclusive = small, poorly fitted or top-dose-only effect, or another doubt; inactive = no such curve, though single readings can be large or run the other way; cell line not stated here;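 also: phosphodiesterase inhibitor Ro 20-1724 added with compounds to block cAMP breakdown; potency is read from the fitted curve at half-maximal effect; nearly all actives have a fitted effect of over 60% in size; about a fifth of the inactives were tested at one dose only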
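Cells stably selected in G418 were plated at 2000/well, grown 16-24 hr, then given compounds in DMSO with the PDE inhibitor […] (300 uM solution added) for 30 min at 37C; cAMP was read by HTRF.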
Sfp PPTase inh – qHTS Assay for Inhibitors of Bacillus subtilis Sfp phosphopantetheinyl transferase (PPTase); hit rate 3.5% among 310,000; Potency, µM, without a hit: max response, negative = inhibition, most hits filed as inhibitors; 4'-phosphopantetheinyl transferase ffp (Bacillus subtilis), Q9F4F7; AID 1490, 2009; Biochemical Sfp PPTase activity, qHTS; active = well fitted inhibition curve with a large enough effect; inconclusive = small, poorly fitted or top-dose-only effect, or another doubt; inactive = no such curve, though single readings can be large or run the other way;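 also: the enzyme is Sfp with the accession as filed and its product quenches rhodamine fluorescence; potency is read from the fitted curve at half-maximal effect; 0% = enzyme reaction without inhibitor and -100% = no enzyme wells; top concentration of the series not given in the record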
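Fluorescence-quenching assay with 15 nM Sfp, 5 uM rhodamine-CoA and 12.5 uM BHQ-2-labelled ybbR peptide in pH 7.6 Hepes/MgCl2 buffer. Enzyme was pre-incubated with compound for 15 min at room temperature. Rate was taken from the 30-min fluorescence change (525/598 nm).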
gsp antagonist – qHTS for Antagonists of gsp, the Etiologic Mutation Responsible for Fibrous Dysplasia/McCune-Albright Syndrome: qHTS; hit rate 0.4% among 340,000; Potency, µM (highest dose often 76.9 µM), for inactives: top-dose activity change, negative = inhibition, usual class: inhibitors; gsp-mutant cells, cAMP HTRF, 30 min; control for the full effect not named in the record; active = falling curve of any shape with a large fitted effect; inconclusive = falling curve, mostly with a smaller effect; inactive = flat or rising curve; cell line not stated here;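 also: intracellular cAMP measured with PDE inhibitor Ro 20-1724 present during compound exposure; potency is read from the fitted curve at half-maximal effect; % is scaled to controls: 0 for no effect and ±100 for the full control effect; nearly all actives have a fitted effect of over 65% in size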
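Cells, 2000/well, grown 16–24 h in DMEM 10% FBS with 0.5 mg/ml G418, then compounds plus […] (300 uM addition stock), 30 min at 37C. cAMP read by HTRF (cAMP-d2 and anti-cAMP antibody-K in lysis buffer) after 30 min RT.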
TRPV1 PAM – HTS Assay for Compounds that Act as Potentiators of the Vanilloid Receptor 1; Transient receptor potential cation channel subfamily V member 1 (Homo sapiens), Q8NER1; potentiation, % at 8.33 µM; hit rate 0.02% among 320,000; TRPV1-expressing cells, Fluo-8 calcium influx, capsaicin EC20 potentiation; host cell line not named in the record; control for the full effect not named in the record; active means potentiation above 80%; inconclusive means 30% to 80%; inactive means below 30%; also: 0% is about no effect
Target sequence (Q8NER1 whole entry, looked up): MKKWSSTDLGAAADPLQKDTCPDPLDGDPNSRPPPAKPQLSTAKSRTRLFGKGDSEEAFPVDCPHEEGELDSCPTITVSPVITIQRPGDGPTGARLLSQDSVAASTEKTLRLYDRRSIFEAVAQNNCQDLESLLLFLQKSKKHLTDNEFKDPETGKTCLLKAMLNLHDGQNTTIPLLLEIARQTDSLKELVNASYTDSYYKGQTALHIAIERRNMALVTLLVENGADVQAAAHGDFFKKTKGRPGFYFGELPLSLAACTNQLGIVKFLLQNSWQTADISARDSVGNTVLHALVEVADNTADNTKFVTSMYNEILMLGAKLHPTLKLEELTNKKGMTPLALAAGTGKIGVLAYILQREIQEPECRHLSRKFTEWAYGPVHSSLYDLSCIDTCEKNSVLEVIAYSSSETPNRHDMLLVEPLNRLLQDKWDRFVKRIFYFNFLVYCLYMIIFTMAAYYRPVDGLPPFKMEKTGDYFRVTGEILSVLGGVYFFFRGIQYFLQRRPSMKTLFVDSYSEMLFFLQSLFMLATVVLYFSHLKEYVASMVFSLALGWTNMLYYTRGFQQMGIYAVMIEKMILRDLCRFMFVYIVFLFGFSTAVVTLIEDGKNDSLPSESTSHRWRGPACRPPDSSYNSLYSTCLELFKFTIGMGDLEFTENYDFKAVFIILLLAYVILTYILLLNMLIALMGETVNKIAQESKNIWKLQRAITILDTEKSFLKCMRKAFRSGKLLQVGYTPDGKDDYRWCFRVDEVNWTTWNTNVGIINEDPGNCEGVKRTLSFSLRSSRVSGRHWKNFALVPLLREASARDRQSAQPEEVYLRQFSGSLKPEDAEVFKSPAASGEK
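Fluo-8 calcium influx in TRPV1-expressing cells, kinetic read (ex 480/em 520 nm). Compound added and read 3 min for agonist activity, followed by capsaicin at EC20 final and 2 min further read for enhancement.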
D2 PAM – Beta-Arrestin HTS for Positive Allosteric Modulators of the Human D2 Dopamine Receptor: Potentiators. DiscoveRx D2 beta-arrestin cells, luminescence, 90 min; 100% = 57 uM dopamine signal. potentiation, % (no concentration beside the values). hit rate 0.23% among 360,000. D(2) dopamine receptor (Homo sapiens), P14416; active = potentiation of 50% or more; inconclusive = 30% to 50%; inactive = 30% or less;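 also: compound concentration not given in the record; tested on top of an EC20 dose of dopamine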
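PathHunter beta-arrestin assay in DiscoveRx D2 cells. Compounds were added with an EC20 of dopamine (50 nM final) for 90 min at 37 deg C. Luminescence was read 1 h after detection reagent, with 57 uM dopamine as the EC100 control.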
ClpP mod – qHTS Assay for Activators of ClpP; ATP-dependent Clp protease proteolytic subunit (Bacillus subtilis (strain 168)), P80244; purified B. subtilis ClpP, FRET peptide cleavage, 20 min; Potency, µM (top dose mostly 57.5 µM), for the others: at the highest dose activity change, negative = active; hit rate 1.9% among 340,000; AID 651965, 2013; active = well fitted falling curve with a large enough effect; inconclusive = small, poorly fitted or top-dose-only effect; inactive = no such curve, though single readings can be large or run the other way; also: potency is read from the fitted curve at half-maximal effect; the source files actives as falling curves though it sought activators and does not explain the sign; nearly all actives have a fitted effect of over 65% in size; many hits overshoot -100%
Target sequence (P80244 whole entry, looked up): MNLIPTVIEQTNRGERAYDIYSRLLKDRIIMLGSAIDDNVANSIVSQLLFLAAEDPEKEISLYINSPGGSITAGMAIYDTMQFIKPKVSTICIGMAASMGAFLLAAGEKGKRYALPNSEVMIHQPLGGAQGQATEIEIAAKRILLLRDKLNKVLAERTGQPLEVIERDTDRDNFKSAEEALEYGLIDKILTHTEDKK
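FRET quenching reversal measured ClpP activation: 10 microg/mL B. subtilis ClpP at pH 8 with the FRET-FV decapeptide, read at 430 nm after 320 nm excitation. The 20-min minus 0-min signal was scaled between DMSO/no-enzyme wells and ADEP (5.8 microM final).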
Menin MLL FP FL – qHTS Assay for Inhibitors Targeting the Menin-MLL Interaction in MLL Related Leukemias: Competition With Fluorescein Labeled MLL-derived Peptide; Fluorescence polarization, fluorescein-MLL peptide displacement from menin; FP activity change, % at 61.4 µM; 290,000 tested, under 10 active; inconclusive = falling polarisation curve, or a change in total fluorescence; inactive = total fluorescence flat and polarisation flat or rising; no compound was filed as active; the % refers to the polarisation; negative = inhibition;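 also: % of control where 0% means no effect; inhibitors lower the polarisation; unlabelled MLL peptide was the positive control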
* = called active by the depositor; ? = inconclusive; / = not tested or not shown; [ ] = another dose, or the depositor's remark.

SMILES | gsp agonist | Sfp PPTase inh | gsp antagonist | TRPV1 PAM | D2 PAM | ClpP mod | Menin MLL FP FL
c1cc(-c2nnn(CCOCCn3nnc(-c4ccncc4)n3)n2)ccn1 | -27% | 3% | 7% | 1 | 2 | 2.0% | -5.3
CN(C)CCCNC(=O)c1ccc(Cl)c(S(=O)(=O)N2CCCCCC2)c1 | ? | / | 16% | -2 | 8 | 2.5% | /
COc1ccc(NC(=O)C[C@H]2C(=O)N(c3ccc(Br)cc3)C[C@@H]2c2ccc(OC)cc2)cc1 | -18% | / | / | / | -6 | -3.8% | /
COc1ccc(C)cc1NC(=O)c1ccc2c(O)c(S(=O)(=O)c3ccccc3)c(=O)[nH]c2c1 | 20% | 27% | 24% | 2 | 17 | -3.5% | 5.8
Cc1[nH]n(-c2ccccc2)c(=O)c1/C=N/NC(=O)c1cccc(F)c1 | 2% | 1% | -15% | -24 | -13 | -7.3% | 0.8
O=C(CCCN1C(=O)/C(=C\c2ccccc2)SC1=S)Nc1cccc(C(=O)O)c1 | 3%[15.4 µM] | -2% | -4% | 6 | -10 | / | -5.9
COc1ccc(C2SCC(=O)N2c2c(C)n(C)n(-c3ccccc3)c2=O)cc1OC (stereo not given) | 1% | 16% | 9% | 1 | -9 | 0.6% | 0.6
COc1ccc(CCN2CC(C(=O)NCCc3ccccc3C(F)(F)F)CCC2=O)cc1 (stereo not given) | 10% | 12% | -4% | 14 | -10 | 2.0% | /
COc1c(Cl)cc(Cl)cc1CNc1ccc(S(N)(=O)=O)cc1 | 18% | 1% | -6% | 5 | -4 | / | 1.7
COCCCn1cnnc1SC(C)C(=O)Nc1ccc(S(=O)(=O)N2CCOCC2)cc1 (stereo not given) | -63%[inhibitor] | / | 10% | / | -1 | 0.5% | /
Cc1ccc2c(c1)c(-c1ccccc1)nc1nnnn12 | 1%[15.4 µM] | 19% | -4% | 15 | 1 | / | -0.1
CCC(=O)N(c1ccc(F)cc1)C1C=CS(=O)(=O)C1 (stereo not given) | 2% | -5% | 2% | -15 | 11 | -0.3% | -0.5
O=C(NCC(=O)N1CCN(c2ncccn2)CC1)c1ccc(F)cc1 | 5% | / | 10% | 4 | 18 | 14µM* | /
O=C1C(=O)N(CCCO)C(c2ccc(Br)cc2)/C1=C(\O)c1ccc(Br)cc1 (stereo not given) | 30% | 29% | 6% | 10 | 5 | 1.8% | 0.4
COc1ccc(CCn2c(N)c(C(=O)NCc3ccco3)c3nc4ccccc4nc32)cc1OC | -1% | 45µM* | -19% | 27 | -1 | 28µM* | 15
Cc1ccc([N+](=O)[O-])cc1N1C(=O)CS/C1=N\NC(=O)c1cccnc1 | -11% | -11% | 10% | -1 | -7 | -0.9% | -2.6
COCC(=O)Nc1nc2n(n1)C(c1ccc(OC)cc1)CC(c1ccc(OC)cc1)N2 (stereo not given) | -14% | 2% | -2% | 1 | -3 | -2.3% | 0.5
COc1ccc(-n2c(C)nc3c(cnn3-c3ccc(C)cc3)c2=O)cc1 | 11% | 10% | -11% | ? | -7 | -3.9% | 2.1
COc1ccc(C(=O)O)cc1S(=O)(=O)NCc1ccccn1 | 0%[15.4 µM] | -2% | 9% | -1 | -6 | -0.1% | 4.0
CC1CN(CCCCSc2ccccc2)CC(C)O1 (stereo not given) | -4% | 4% | 7% | 11 | -50 | 0.3% | 1.7
CN1C(=O)N(C)C2(c3ccccc3)N(C)C(=O)NC12c1ccccc1 (stereo not given) | -29% | 27% | 15% | -26 | 10 | -2.0% | 1.0
CC(=O)Nc1ccc(-c2csc(NCCc3ccccc3)n2)cc1 | -39% | -21% | 3% | 10 | -7 | / | -0.9
COC(=O)COc1ccc(-c2ccc(F)cc2)cc1C=O | 23%[15.4 µM] | -11% | 6% | -29 | -17 | / | 6.6
COc1cccc(C(=O)Nc2ccc(N3CCN(Cc4ccccc4)CC3)cc2)c1 | 0% | 10% | 6% | -2 | -24 | 1.9% | 0.6
CC(C)(C)NC(=O)C(c1ccc(Cl)cc1)N(Cc1ccco1)C(=O)CCl (stereo not given) | 2% | 19% | -5% | 4 | 1 | 1.3% | 0.9
CC(C)Sc1nc(N2CCOCC2)c2c(c1C#N)CC(C)(C)SC2 | -15% | -17% | ? | -16 | -9 | ? | -2.1
CCCCC(=O)Nc1ccccc1Oc1ccccc1 | 0% | 3% | 0% | -5 | -2 | -0.9% | -4.7
COc1ccc(NC(=O)Cn2nc(C)c3ccccc3c2=O)cc1 | -1% | 24% | 0% | 1 | -5 | 0.7% | 0.4
Cc1cccc(NC(=O)C2CCN(S(=O)(=O)c3ccc4c(c3)C(C)(C)C(=O)N4C)CC2)c1C | 26% | 3% | -8% | -5 | -1 | 0.5% | -5.0
CN(CCO)c1ccc(-c2nn(C)c(=O)c3ccccc23)cc1[N+](=O)[O-] | -10% | 6% | -14% | -14 | 5 | -5.0% | 5.7

Entries of single compounds from above. Order of screens: gsp agonist	Sfp PPTase inh	gsp antagonist	TRPV1 PAM	D2 PAM	ClpP mod	Menin MLL FP FL
COc1ccc(NC(=O)Cn2nc(C)c3ccccc3c2=O)cc1 as listed: -1%	24%	0%	1	-5	0.7%	0.4
CN1C(=O)N(C)C2(c3ccccc3)N(C)C(=O)NC12c1ccccc1 (stereo not given) as listed: -29%	27%	15%	-26	10	-2.0%	1.0
Cc1cccc(NC(=O)C2CCN(S(=O)(=O)c3ccc4c(c3)C(C)(C)C(=O)N4C)CC2)c1C as listed: 26%	3%	-8%	-5	-1	0.5%	-5.0
CCCCC(=O)Nc1ccccc1Oc1ccccc1 as listed: 0%	3%	0%	-5	-2	-0.9%	-4.7

Remaining list, next part.
SMILES | gsp agonist | Sfp PPTase inh | gsp antagonist | TRPV1 PAM | D2 PAM | ClpP mod | Menin MLL FP FL
COc1cc(NC(=O)c2cccnc2SC)cc(OC)c1 | -3%[15.4 µM] | 9% | 5% | 11 | -40 | / | 0.3
COC(=O)Nc1ccc2c(c1)OCO2 | 11% | 3% | 6% | 3 | 8 | -2.7% | 1.4
CCOC(=O)c1[nH]cnc1C(=O)Nc1ccc(Cl)cc1 | 16% | 10% | -6% | 0 | -15 | -18% | -1.6
Cc1ccc(CN2CCc3[nH]c(=O)[nH]c(=O)c3C2)cc1 | 5% | 20% | 11% | 4 | 1 | 4.3% | 1.2
CCOc1ccc(C(C)NC(=O)c2ccc3c(c2)NC(=O)C(C)S3)cc1OCC (stereo not given) | 24% | / | -4% | 8 | 6 | -3.1% | /
CCOc1ccc(NC(=O)NNC(=O)c2ccc(CC)s2)cc1 | 1% | 2% | -2% | -5 | -8 | -1.2% | 5.9
COc1cccc(N2CCN(C3CC(=O)N(c4ccc(F)c(Cl)c4)C3=O)CC2)c1 (stereo not given) | -3% | ? | 3% | -14 | -2 | -0.1% | 3.9
O=C(Cc1ccc(NC2=NC3CS(=O)(=O)CC3S2)cc1)NCc1ccccc1 (stereo not given) | -23% | 9% | 6% | 15 | -6 | 0.5% | -7.2
COc1ccccc1NS(=O)(=O)c1cc(NC(=O)c2cc[n+]([O-])cc2)ccc1N1CCCC1 | 3%[15.4 µM] | 11µM* | -6% | -4 | -6 | / | 0.6
CCCCN1CC(O)=C(c2nc(-c3ccc(Br)cc3)cs2)C1=N | 18%[15.4 µM] | 2% | 3% | / | 0 | / | 5.8
CCc1cc(C(=O)N2CCCC(CCC(=O)NCc3cccc(OC)c3)C2)no1 (stereo not given) | 6% | 1% | -14% | 0 | 0 | / | -1.0
O=C(NC(=S)Nc1nc(-c2ccc(Br)cc2)cs1)c1ccco1 | -17% | -3% | 2% | 6 | -5 | / | 3.2
O=C(COC(=O)CCOc1ccccc1)NCc1ccco1 | -28% | -5% | -7% | -5 | 18 | -3.6% | 3.9
O=C(CS(=O)CC(=O)N(CC(=O)NC1CCCC1)C1CCCC1)Nc1ccc(F)cc1 (stereo not given) | 7% | -3% | -8% | -3 | -16 | -2.0% | 1.7
COc1ccccc1N1C(=O)C=C(Sc2nc(C)cc(C)n2)C1=O | 9%[15.4 µM] | 3.2µM* | -7% | 18 | -11 | / | 0.8
O=C(Cc1csc(Nc2nc(=S)[nH]c3ccccc23)n1)N1CCN(c2cccc(Cl)c2)CC1 | -3%[15.4 µM] | 34%[activator] | -15% | 1 | -4 | / | 2.8
COc1ccccc1-c1cc2nc(C)cc(C)n2n1 | -4%[15.4 µM] | 11% | 6% | -20 | -1 | / | 0.5
COC(=O)N=Nc1c(O)n(Cc2ccccc2)c2ccccc12 | -8%[15.4 µM] | -16% | 3% | 3 | -1 | / | 2.8
COc1cc(/C=N/NC(=O)c2cc3ccccc3[nH]2)ccc1O | 2% | -4% | -3% | 6 | -15 | -11% | -0.3
CN(CC(=O)Nc1ccc(F)cc1)C(=O)CN1C(=O)NC2(CCCCC2)C1=O | -4% | / | -3% | / | 1 | / | /
CCC(C)NC(=O)c1c(F)c(F)c(F)c(F)c1F (stereo not given) | 0% | -4% | 7% | ? | -9 | -1.9% | -2.0
S=c1[nH]c2ccc(Cl)cc2[nH]1 | 5% | -2% | 4% | -41 | -12 | -0.8% | 0.9
CC1CN(CCOc2ccccc2C(C)C)CC(C)O1 (stereo not given) | 3% | ? | 8% | 5 | -3 | 1.1% | 0.9
NC(=O)NC(Cc1ccccc1)C(=O)NCC1(N2CCCCC2)CCCCC1 (stereo not given) | ? | -4% | 5% | -1 | -3 | -0.8% | 0.7
O=C(Nc1ccc2c(c1)OCO2)C1CCN(S(=O)(=O)c2cccc3cccnc23)CC1 | -16% | 2% | -16% | 24 | -8 | 2.4% | 3.9
